AID923: qHTS Assay for Allosteric/Competitive Inhibitors of Caspase-1: Spectroscopic Profiling in AFC Spectral Region. compound fluorescence, AFC spectral region (405/520 nm); almost no hit is shown here. 1.1% of 75,000 active. Potency, µM (highest dose often 57.5 µM), without a hit: at the highest dose fluorescence increase, actives largely listed as activators. AID 923, 2007; active means well fitted activation curve with a large enough effect;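 further: potency means the concentration at half of the fitted maximal effect; 0% is about no effect; scaled to a free AFC standard on each plate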
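Baseline compound fluorescence (AFC region, 405 nm ex/520 nm em) taken from the intercept of kinetic reads with 50 nM caspase-1 and 5 uM Ac-WEHD-AFC; normalized to an on-plate AFC standard curve; compounds titrated up to 57 uM.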
Resorufin_fluor: resorufin region autofluorescence; max dye-equivalent concentration, M; Compound fluorescence, resorufin region 547/598 nm, buffer; stronger effect = higher value; 0.04% of 59,000 active; active = above 10 nM dye equivalent; inconclusive = 1 to 10 nM; inactive = 1 nM or less; a few of its hits are not listed in these tables; further: highest value over a series up to 38 µM
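Dye-equivalent concentration values derive from comparing each well's 547/598 nm fluorescence against resorufin standards included on every plate. Incubation was 15 min at room temperature in 100 mM Tris, pH 8.0.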
A647_fluor: A647 region autofluorescence. Compound fluorescence, A647 channel (570/671 nm), Tris buffer. max dye-equivalent concentration, M. 59,000 tested, under 10 active. AID 592; active means above 1 µM dye equivalent; inconclusive means 0.1 to 1 µM; inactive means 0.1 µM or less;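 further: values scaled relative to a standard on each plate; highest value over a series up to 38 µM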
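Buffer was dispensed, compounds and Alexa 647 standards were pin-transferred, and plates sat 15 min at room temperature. Intensity at 570/671 nm was then converted to dye-equivalent concentration using the plate's A647 standard curve.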
A488_fluor: compound fluoresces in the A488 spectral region; 0.1% of 59,000 active; compound autofluorescence, A488 spectral region, dye equivalency; stronger effect = higher value; max dye equivalency, M; active = above 10 nM dye equivalent; inconclusive = 1 to 10 nM; inactive = 1 nM or less; about half of its hits are not listed in these tables;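 further: highest value over a series up to 38 µM; compound alone in buffer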
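Spectroscopic profiling in the A488 region: compounds in pH 8.0 Tris (100 mM), 15 min RT, CCD imaging with 480 nm excitation and 540 nm emission; responses normalized against A488 dye standards.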
* marks the source's active call; other numbers are inactive results; i = inactive; & = joins results of further samples.

SMILES AID923 Resorufin_fluor A647_fluor A488_fluor
CC[C@@H]1C(=O)OC[C@@H]1Cc1cncn1C 0.3% i 3.7e-08&4.6e-08 i

Screening results (PubChem BioAssay)

Only part of the results is shown. The share of hits here may be higher or lower than overall.
